Screening data (PubChem)
Beta apoptosis: beta cell apoptosis inhibition; INS-1E cytokine-induced death, ATP luminescence, 48 h; percent of positive-control rescue, neutral wells zero; protection from apoptosis, % (concentration not given with the values); hit rate 0.8% among 300,000;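 active means all replicates at 75% or more, or half of them and the mean; inconclusive means half reach 75% but not the mean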;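 further: 0% = cytokine-treated negative control wells and 100% = positive control rescue; higher means more ATP so stronger rescue from cytokine killing; wells of about 40 µL received 100 nL stock; the first replicate is given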
Ecoli rRNA inh: inhibitors of bacterial rRNA selective over humanized ribosomes | E. coli WT GFP vs humanized-ribosome RFP mutants, fluorescence, 24 h; hits give low values; DMSO median 0, no signal -100 | GFP signal change (wild-type ribosome), % (test concentration not listed) | hit rate 1.6% among 350,000;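 active means significant combined selectivity score with lowered wild-type GFP, culture density cut under 30%, mutant RFP and density less affected; inactive means any of these conditions unmet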; further: one replicate is shown; some compounds called inactive have numbers as strong as hits
Calb FLC: C. albicans growth modulation with fluconazole; C. albicans CaCi-2 (fluconazole-resistant clinical isolate) + fluconazole, Alamar Blue growth, 48 h; growth inhibition, % (test concentration not listed); hit rate 0.57% among 300,000;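 active means most replicates above 75%; inconclusive means exactly half above 75%; inactive means most below 75%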;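 further: all wells also contain fluconazole at 8 µg/ml as a sub-toxic cotreatment; 0% = median of DMSO wells and 100% = median of geldanamycin control wells; wells of about 8 µL received 7.5 nL stock; the first replicate is given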
Vif A3G: inhibitors of Vif binding to APOBEC3G peptide, primary screen, biochemical, TR-FRET, GST-Vif 1-94, biotin-A3G peptide, dose response retest (AID 1117319). inhibition, %; hits with a dose series show IC50 in µM. hit rate 0.57% among 260,000. TR-FRET GST-Vif / biotin-A3G peptide binding; higher % means a stronger effect; test concentration not given here; strong numbers were not always called active;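 active means above the screen mean plus three standard deviations and confirmed in dose response; inconclusive means results disagree or hit not tested in dose response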;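 further: Vif residues 1-94 fused to GST binding biotinylated APOBEC3G peptide 110-148; 0% = full assay without inhibitor and 100% = GST in place of GST-Vif; retest series ran down from 100 µM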
MLL AF4-AF9 inh: MLL-AF4/AF9 protein interaction inhibition; inhibition, % at 10 µM; AlphaScreen, biotin-AF4 peptide binding to FLAG-AF9; P42568; hit rate 0.47% among 350,000;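 active means every replicate reaching a set inhibition limit, whatever the replicate mean, cut at about 25% in these data; inconclusive means mean inhibition reaches that limit but some replicates miss it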;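 further: 0% = plate neutral control median and 100% = total signal loss; the record names both 10 and 1 µM as test concentration; the first replicate is given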
Target sequence (P42568 whole entry, looked up): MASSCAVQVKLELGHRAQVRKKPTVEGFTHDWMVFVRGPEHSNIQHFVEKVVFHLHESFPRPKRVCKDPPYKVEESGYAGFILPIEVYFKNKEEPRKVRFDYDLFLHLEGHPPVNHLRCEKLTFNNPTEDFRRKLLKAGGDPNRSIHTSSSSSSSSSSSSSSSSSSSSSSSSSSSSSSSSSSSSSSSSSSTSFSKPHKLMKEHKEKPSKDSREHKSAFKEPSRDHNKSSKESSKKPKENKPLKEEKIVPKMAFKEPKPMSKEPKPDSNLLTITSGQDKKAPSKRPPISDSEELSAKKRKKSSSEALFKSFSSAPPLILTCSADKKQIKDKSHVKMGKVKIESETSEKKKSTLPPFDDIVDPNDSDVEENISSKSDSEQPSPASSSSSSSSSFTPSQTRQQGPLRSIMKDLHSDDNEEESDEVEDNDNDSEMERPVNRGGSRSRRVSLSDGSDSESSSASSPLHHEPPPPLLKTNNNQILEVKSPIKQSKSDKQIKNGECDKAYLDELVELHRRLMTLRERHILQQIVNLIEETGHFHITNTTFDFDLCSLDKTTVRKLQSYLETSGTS
RanGTP-Impb inh: inhibitors of RanGTP-importin-beta interaction, primary screen, biochemical, FRET, CFP-Ran, YFP-importin-beta, homogeneous | cell-free CFP-Ran/YFP-importin-beta FRET ratio | hit rate 1.1% among 300,000 | inhibition, % (no concentration beside the values);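 active means most replicates above 15%; inconclusive means exactly half above 15%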;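 further: 0% = DMSO wells and 100% = Ran loaded with GDP instead of GTP; wells of about 40 µL received 100 nL stock; the first replicate is given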
T cruzi repl: T. cruzi replication inhibition; T. cruzi beta-gal in NIH3T3, luminescence, 90 h; inhibition, % (concentration not given with the values); hit rate 1.4% among 300,000; AID 1885;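 active means mean inhibition across valid replicates above about 55%, limit read from the data; inconclusive means mean below that limit but half or more replicates reach it; inactive means mean below it, under half of replicates reach it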;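 further: signal also drops with host cell toxicity which is not excluded here; 0% = plate median of DMSO wells and 100% = zero luminescence signal; higher percent means less beta-gal luminescence so fewer parasites; stock transfer was 50 nL into about 50 µL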
Bfl-1 A1 inh: inhibitors of the anti-apoptotic protein A1, read as caspase activation; MEF A1-2A-BIM cells, Caspase-Glo 3/7 luminescence, 3 h; percent of clofoctol response, vehicle zero; caspase activation, % (concentration not given with the values); hit rate 0.066% among 330,000; AID 2462;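 active means over half of replicate activation scores above 10%, or exactly half above 10 with the replicate mean above 10; inconclusive means replicate mean below 10 yet half the replicates above 10; inactive means over half of replicates below 10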;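 further: wells of about 30 µL received 50 nL stock; many hits fall short of the cut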
Ecoli rRNA inh OD600: second read-out of Ecoli rRNA inh, no call of its own (marks repeat the call); OD600 change, %; measured here: OD600 growth;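 optical density of the mix in the first replicate; 0 = DMSO median and -100 = no signal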
Ecoli rRNA inh RFP: second read-out of Ecoli rRNA inh, no call of its own (marks repeat the call); RFP signal change, %; measured here: RFP humanized mutant strains;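 first replicate; 0 = DMSO median and -100 = no signal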
The depositor's hits bear a star; u = inconclusive; x = no result given; & = joins results of further samples.

SMILES	Beta apoptosis	Ecoli rRNA inh	Ecoli rRNA inh OD600	Ecoli rRNA inh RFP	Calb FLC	Vif A3G	MLL AF4-AF9 inh	RanGTP-Impb inh	T cruzi repl	Bfl-1 A1 inh
COC(=O)c1[nH]c2ccc(C)cc2c1NC(=O)CCN1CCN(Cc2ccc3c(c2)OCO3)CC1	18	x	x	x	-32	15%&9%	x	-2.6	-10	0.3
COc1cccc(OCC(O)CN2CCC(C)CC2)c1 (stereo unspecified)	-5	x	x	x	-1	5%	x	1.1	-6	-0.2
O=[N+]([O-])c1ccccc1Oc1ccc(Cl)c2cccnc12	-10	-29*	-12*	-1.8*	-13	10%	0.9	0.5	-12	0.3
CCCCCCSc1cc(-c2nc3cc(C)ccn3c2NC2CCCCC2)ccc1OC	9	12	3	5.1	-2	x	1.4	-0.8	38	0.3
CCN(CC)C(=O)CSc1nc(N)c(-c2ccccc2)c(=O)[nH]1	-15	14	10	-0.7	2	-4%	-1.0	-1.1	0	-0.7
COc1ccc(N2CCN(C(CNC(=O)C(=O)NCCC3=CCCCC3)c3ccco3)CC2)cc1 (stereo unspecified)	19	x	x	x	6	0%	x	u	16	0.1
Cn1c(SCC(=O)NC2CCCC2)nnc1-c1ccco1	-1	2	4	-2.0	-1	x	1.9	3.8	-15	0.1
C=CCn1c(SCC(=O)N(CCC)C2CCS(=O)(=O)C2)nnc1-c1ccccc1OC (stereo unspecified)	-2	7	16	-0.5	-11	x	12	0.4	0	-0.6
CC1=C(C(=O)OCc2ccccc2)C(c2ccccc2OS(=O)(=O)c2ccccc2[N+](=O)[O-])NC(=O)N1CCCC(=O)O (stereo unspecified)	-4	12	6	-3.3	-7	x	3.1	7.9	15	0.2
O=C(OCCN(C1=NS(=O)(=O)c2ccccc21)c1ccccc1Cl)c1ccc(Cl)cc1	0	x	x	x	35	-8%	x	3.5	8	-0.5
C(/C=C/c1ccco1)=N/N1CCN(c2ccccc2)CC1	-4	x	x	x	1	19%	x	-5.3	7	-5.2
COc1cccc(NS(=O)(=O)c2ccc3c(c2)C2C=CCC2C(c2ccc(C(=O)O)cc2)N3)c1 (stereo unspecified)	-3	x	x	x	12	3.3µM*	x	-8.1	-1	0.4
O=C(O)CN=C1NC2(CCCC2)Cc2ccccc21	-2	x	x	x	-23	0%	x	-2.1	-13	1.3
Cc1ccc(-n2c(-c3ccc(Cl)cc3)n[nH]c2=S)cc1	-3	-30	-35	-4.4	3	x	-7.6	0.0	-6	1.9
Cc1ccc(/C=N\NC(=O)C2CN(S(=O)(=O)c3ccccc3)CCN2S(=O)(=O)c2ccccc2)cc1 (stereo unspecified)	-1	21	10	6.0	-30	x	1.5	0.5	2	0.0
O=C(Cc1cccs1)Nc1ccc(Cl)cc1	-1	x	x	x	1	8%	x	-0.1	-3	-1.7
C=CCSc1nc2sc(C)c(C)c2c(=O)[nH]1	-4	-4	0	-9.1	-6	27%	-1.2	-1.2	-2	-0.2
O=S(=O)(c1ccccc1F)N1CCN(CCc2ccccc2)CC1	-2	-1	-21	1.5	6	1%	-0.6	-2.0	11	1.6
CC(C)CN(Cc1cc2ccccc2[nH]c1=O)C(=O)c1cccnc1	0	x	x	x	-6	5%	x	-4.8	2	0.2
N#CCc1ccc(NC(=O)c2ccc(S(=O)(=O)N3CCCC3)cc2)cc1	-5	4	5	-3.2	-1	x	-0.5	-0.1	-2	-0.1
CCn1c(N)c(C(=O)NCCOC)sc1=S	2	x	x	x	-7	5%	x	4.1	-3	-0.1
NC(=O)c1ccc(NC(=O)CS(=O)(=O)c2cn(CC(=O)N3CCCC3)c3ccccc23)cc1	-4	16	15	4.7	-11	x	-0.3	0.8	-22	-1.2
CSc1nsc(SC)c1C(=O)OCC(F)(F)F	3	x	x	x	25	-2%	x	2.5	8	1.0
CCOC(=O)C1CCN(C(=O)c2cccc(NS(=O)(=O)c3ccc(F)c(F)c3)c2)CC1	-5	-20	-14	-3.8	1	-7%	-1.0	2.1	8	0.0
CCOC(=O)c1sc(NC(=O)C2CC(=O)N(c3ccccc3C)C2)nc1C (stereo unspecified)	0	-8	-6	5.6	0	x	2.0	-0.4	-7	-0.1
Cc1ccc(-c2cc(C(=O)Nc3cnn(C(C)C)c3)no2)cc1	-6	x	x	x	-8	-5%	x	-4.8	-4	0.3
CCn1c(=O)cc(SCC(=O)Nc2cccc(SC)c2)c2ccccc21	5	x	x	x	-19	-1%	x	-1.8	15	-0.2
N=c1oc2cc(O)ccc2cc1C(=O)Nc1ccc(Br)cc1	x	-17	-15	-0.3	-3	x	-8.4	167*	-6	-5.3
CC(=O)Nc1ccc(S(=O)(=O)Oc2ccc(C(=S)N3CCCCC3)cc2)cc1	7	x	x	x	u	x	x	-2.0	-10	-2.8
CN(C)CCCNCCCNC(=O)/C=N/O	3	4	2	-5.7	-3	-3%	8.4	-1.9	37	0.2
CCC(C)NS(=O)(=O)c1ccc(NC(=O)C2CCCO2)cc1 (stereo unspecified)	-4	5	3	2.9	-12	x	-18	0.3	3	-0.1
COc1ccc(C(=O)NCCc2nnc3ccc(SCC(=O)N4CCOCC4)nn23)cc1	-9	18	7	11	-2	x	-1.8	4.3	-14	0.0
COCCn1c(-c2ccc(C#N)cc2)nc2c1c(=O)[nH]c(=O)n2Cc1ccccc1	-7	13	11	1.4	-16	1%	-1.5	-3.5	20	1.3
Nc1ccc(N2CCOCC2)c2nonc12	1	16	9	0.2	15	31%	11	-2.5	6	0.1
COc1ccc(-c2oc3ncnc(NCCCN4CCOCC4)c3c2-c2ccc(OC)cc2)cc1	0	x	x	x	15	-2%	x	0.7	44	0.1
O=C(O)CC(Cc1ccccc1)(C(=O)O)c1ccccc1 (stereo unspecified)	2	6	14	1.4	5	x	2.2	0.4	-21	0.5
Cc1cc(C(=O)Nc2ccccc2C(=O)N2CCCCC2)ccc1[N+](=O)[O-]	-5	8	11	2.5	-7	1%	1.8	6.2	8	-0.5
COC(=O)c1cc2c(cc1Cl)SC(=NCCCN1CCOCC1)NS2(=O)=O	-6	x	x	x	9	8%	x	-1.3	-18	0.2
CC(C)Cn1c(C23CC4CC(CC(C4)C2)C3)n[nH]c1=S	2	-35	-60	-6.3	-5	x	-0.6	-4.2	11	0.1
CCCC(O)(c1ccc(Cl)cc1)C(CN1CCOCC1)c1ccc(Cl)cc1 (stereo unspecified)	7	-1	-24	18	8	0%	2.4	-3.0	-9	-0.7
CN(C)/C=C1\NC(=S)N(c2ccc(Cl)cc2)C1=O	-7	0	-7	1.3	-15	2%	-4.0	2.6	-12	-0.8
COc1cccc(C(=O)O[C@H]2[C@H](Cc3ccccc3)NS(=O)(=O)[C@H]3C[C@@H]4C=C[C@]23O4)c1	-2	12	3	2.0	x	x	5.1	x	x	0.7
O=[N+]([O-])c1cccc(NC(=S)Nc2nc(-c3ccccc3Cl)cs2)c1	33	-7	-18	3.9	-1	x	0.5	-1.2	38	-0.9
CCOC(=O)c1sc(NS(=O)(=O)c2ccc(NC(C)=O)cc2)nc1C	-7	x	x	x	-13	9%	x	u	-11	-0.5
Nc1ccc(S(=O)(=O)Nc2nccc(/C=C/c3ccccc3F)n2)cc1	-7	3	6	-0.8	-33	6%	-0.7	0.6	-31	-0.4

Two entries from above, with values under each structure:
The line under a structure holds: Beta apoptosis, Ecoli rRNA inh, Ecoli rRNA inh OD600, Ecoli rRNA inh RFP, Calb FLC, Vif A3G, MLL AF4-AF9 inh, RanGTP-Impb inh, T cruzi repl, Bfl-1 A1 inh
> CN(C)/C=C1\NC(=S)N(c2ccc(Cl)cc2)C1=O
 : -7, 0, -7, 1.3, -15, 2%, -4.0, 2.6, -12, -0.8
> Cc1ccc(-n2c(-c3ccc(Cl)cc3)n[nH]c2=S)cc1
 : -3, -30, -35, -4.4, 3, x, -7.6, 0.0, -6, 1.9

Further records
SMILES	Beta apoptosis	Ecoli rRNA inh	Ecoli rRNA inh OD600	Ecoli rRNA inh RFP	Calb FLC	Vif A3G	MLL AF4-AF9 inh	RanGTP-Impb inh	T cruzi repl	Bfl-1 A1 inh
O=C(c1ncc[nH]1)c1ccccc1C(=O)N1CCOCC1	2	16	6	-7.3	-27	1%	-3.4	2.1	-5	0.2
O=C(CNC(=O)c1cccc(F)c1)N/N=C/c1cc(Br)ccc1OCc1ccccc1	0	-4	1	-0.5	-7	-2%	-18	0.6	13	2.2
COc1ccc(-c2csc(CCn3nc(C)cc3C)n2)cc1	-4	-21*	-16*	-1.1*	1	x	-22	1.6	1	-0.5
CC1CCCCC12NC(=O)N(CC(=O)c1ccc3c(c1)OCO3)C2=O (stereo unspecified)	-3	7	7	-0.7	-1	-3%	-0.2	-0.7	-6	-0.2
COc1ccc(S(=O)(=O)NC2CC(=O)N(c3ccc4c(c3)OCCO4)C2)cc1 (stereo unspecified)	-9	-2	-7	1.2	-1	-3%	1.1	-1.4	-3	1.9
Cc1ccccc1S(=O)(=O)Cc1ccc(C(=O)N2CCN(c3ccc(F)cc3)CC2)o1	-1	x	x	x	17	3%	x	-0.6	12	1.6
CCCCCn1c(NC(=O)c2ccco2)c(S(=O)(=O)c2ccc(C)cc2)c2nc3ccccc3nc21	-3	x	x	x	13	10%	x	80*	55*	-1.0
CN(C)c1ccc(CNS(=O)(=O)c2ccc3c(c2)NC(=O)CS3)cc1	-4	-14	-3	4.5	16	5%	-1.1	3.1	-18	0.2
CC(=O)c1sc(NC(=O)COc2ccc(Cl)cc2C)nc1C	6	9	13	9.8	-1	x	-3.3	-5.3	-13	0.6
CC(SCc1nc2sc3c(c2c(=O)[nH]1)CCCC3)C(=O)Nc1ccccn1 (stereo unspecified)	-8	-11	-11	-0.6	32	5%	-1.2	-11	-1	-0.9
C=C(C)c1ccc(C(C)(C)NC(=O)NCc2ccco2)cc1	-8	x	x	x	2	1%	x	2.6	3	-0.2
O=C(CCNC(=O)c1ccco1)Nc1ccc(OC(F)F)cc1	1	-5	-22	3.4	-7	-5%	-0.7	6.7	-5	-0.1
CCN(C(=O)Cc1ccc(NC2=NC3CS(=O)(=O)CC3S2)cc1)c1ccccc1 (stereo unspecified)	2	3	7	1.1	-2	x	23	-0.7	-5	0.2
C=CCNC(NC(=O)c1ccccc1)(C(=O)OCC)C(F)(F)F (stereo unspecified)	-6	x	x	x	1	-1%	x	0.9	10	0.3
O=C(CSc1nnc2n1CCCN2)c1ccc(Cl)cc1	-8	x	x	x	38	-4%	x	u	-10	0.5
CC(C)(C)NC(=O)CN(C(=O)Cn1nnc(-c2ccc(Cl)cc2)n1)C1CCN(Cc2ccccc2)CC1	3	x	x	x	-1	7%	x	-0.7	13	1.3
c1ccc(-c2csc(-c3ccncc3)n2)cc1	-8	9	5	-4.2	2	-4%	4.6	u	-14	-0.4
O=C(c1cc2ccccc2o1)N1CCN(S(=O)(=O)c2ccc(F)c(F)c2F)CC1	5	13	16	-1.5	x	-8%	-0.5	x	x	0.0

Only part of the results is shown; the hit share may differ from the screen's.
